# SARS PLP yeast = qHTS of Yeast-based Assay for SARS-CoV PLP; S. cerevisiae expressing SARS-CoV PLpro, growth rescue; control for the full effect not named in the record; Potency, µM (highest dose often 32.9 µM), for the others: at the top dose activity, positive = growth rescue; 330,000 compounds, 0.19% hits; AID 485353, 2010; active means well fitted rising curve with a large enough effect; inconclusive means small, poorly fitted or top-dose-only effect; inactive means no such curve, though single readings can be large or run the other way; note: 0% is about no effect; nearly all actives have a fitted effect of over 55% in size; growth read by luminescence after 48 h
# RE007 growth inh = qHTS Assay for Inhibitors of the HIV-1 protein Vpr | S. pombe RE007 Vpr strain, BacTiter-Glo ATP luminescence, 24 h; control for the full effect not named in the record | Potency, µM (titrated, usually from 92.2 µM), without a hit: top-dose activity change, negative = less growth | 360,000 compounds, 0.21% hits | AID 651644, 2012; active = well fitted falling curve with a large enough effect; inconclusive = small, poorly fitted or top-dose-only effect; inactive = no such curve, though single readings can be large or run the other way;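 note: % is set by controls: 0 for no effect and ±100 for the full control effect; nearly all actives have a fitted effect of over 50% in size; the assay follows cell death caused by Vpr and the record does not say whether a fall means rescue or toxicity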
#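 Fission yeast RE007 carrying one integrated HIV-1 vpr copy, seeded at OD 0.01 in PMG+AL medium with 23 nL pinned compound. Grown 24 h at 30 degrees; viability read by BacTiter-Glo luminescence after 5 min.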
# MARV entry inh = qHTS for inhibitors of binding or entry into cells for Marburg Virus | Potency, µM (titrated, usually from 37.8 µM), for the others: at the highest dose activity change, negative = inhibition, actives largely listed as inhibitors | Marburg virus pseudotyped entry inhibition, cell reporter; control for the full effect not named in the record; about a third of the inactives were read at about 46 µM | AID 540276, 2011 | 300,000 compounds, 1.8% hits; active = well fitted inhibition curve with a large enough effect; inconclusive = small, poorly fitted or top-dose-only effect, or effect the other way; inactive = flat fitted curve, though single readings scatter; tested in HEK293 cells; about a fifth of its hits are not listed in these tables; note: % is set by controls: 0 for no effect and ±100 for the full control effect; luciferase read-out
# Cruzain inh noDet = qHTS Assay for Promiscuous and Specific Inhibitors of Cruzain (without detergent); 200,000 compounds, 2.3% hits; Cruzipain (Trypanosoma cruzi), P25779; purified cruzain, Z-FR-AMC fluorescence, no detergent; Potency, µM, for the others: max response, negative = inhibition, most hits filed as inhibitors;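 note: plate controls were enzyme without inhibitor for no effect and buffer without enzyme for full effect; nearly all actives have a fitted effect of over 40% in size; top concentration of the series not given in the record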
# Target sequence (P25779 123-467 limits assumed): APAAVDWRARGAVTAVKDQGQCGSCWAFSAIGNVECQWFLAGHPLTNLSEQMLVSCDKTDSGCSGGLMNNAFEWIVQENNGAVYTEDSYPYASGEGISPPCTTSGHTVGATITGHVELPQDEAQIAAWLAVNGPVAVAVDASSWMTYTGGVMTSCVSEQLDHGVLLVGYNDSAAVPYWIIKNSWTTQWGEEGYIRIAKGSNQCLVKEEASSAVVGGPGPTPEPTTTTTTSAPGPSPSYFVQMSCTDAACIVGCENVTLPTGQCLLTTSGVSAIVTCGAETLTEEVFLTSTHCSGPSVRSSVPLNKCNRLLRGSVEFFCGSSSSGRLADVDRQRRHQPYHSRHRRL
#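 Purified cruzain at 1.5 nM, pre-incubated 15 min with compound at room temperature in 100 mM sodium acetate pH 5.5, 5 mM DTT, 0.00005% Triton X-100. Reaction started with 2 uM Z-FR-AMC; AMC fluorescence increase over 60 s gives rate.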
# 2A StopGo = High Throughput Screening for Foot and Mouth Disease Virus Antivirals; human cells with a luciferase reporter of 2A StopGo recoding; control for the full effect not named in the record; Potency, µM (highest dose often 57.9 µM), for the others: top-dose signal change, negative = less light; 410,000 compounds, 1.2% hits; AID 1159524, 2015; active = well fitted falling curve with a large enough effect; inconclusive = small, poorly fitted or top-dose-only effect; inactive = no such curve, though single readings can be large or run the other way; tested in HEK293T cells; note: % is set by controls: 0 for no effect and ±100 for the full control effect; nearly all actives have a fitted effect of over 45% in size; luciferase light after 4 h
# NS1 inh = qHTS Assay for Inhibitors of Influenza NS1 Protein Function; S. cerevisiae slowed by influenza A NS1, growth recovery by OD600; 270,000 compounds, 0.4% hits; Potency, µM (highest dose often 46.1 µM), for the others: at the top dose activity, positive = more growth; AID 2326, 2010; active means well fitted rising curve with a large enough effect; inconclusive means small, poorly fitted or top-dose-only effect; inactive means no such curve, though single readings can be large or run the other way; note: nearly all actives have a fitted effect of over 50% in size
#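 In this qHTS, NS1 from influenza A is expressed in budding yeast, where it slows growth. Cells are switched from glucose to 2% galactose medium (pH 6.0, -URA), treated with compound, and growth recovery is read at OD600.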
# Cruzain Triton = qHTS Assay for Promiscuous and Specific Inhibitors of Cruzain (with detergent) | Cruzipain (Trypanosoma cruzi), P25779 | purified cruzain, Z-FR-AMC fluorescence, 0.01% Triton | Potency, µM, for the others: max response, negative = inhibition, most hits filed as inhibitors | 200,000 compounds, 0.43% hits | AID 1478, 2009;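 note: plate controls were neutral wells for no effect and buffer without enzyme for full effect; nearly all actives have a fitted effect of over 40% in size; top concentration of the series not given in the record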
#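 Z-FR-AMC hydrolysis (2 uM substrate) by cruzain (1.5 nM) monitored kinetically at ex 360/em 450 nm after 15 min room-temperature compound exposure; 0.01% Triton X-100, pH 5.5, 5 mM DTT.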
# LASV entry inh = qHTS for Inhibitors of binding or entry into cells for Lassa Virus | Lassa virus pseudotype entry inhibition, cell reporter; control for the full effect not named in the record | Potency, µM (series often up to 37.9 µM), inactives show at the highest dose activity change, negative = inhibition, hits mostly inhibitors | 300,000 compounds, 1.2% hits; active means well fitted inhibition curve with a large enough effect; inconclusive means small, poorly fitted or top-dose-only effect, or effect the other way; inactive means flat fitted curve, though single readings scatter; tested in HEK293 cells; note: % is set by controls: 0 for no effect and ±100 for the full control effect; nearly all actives have a fitted effect of over 50% in size; luciferase read-out
# * = called active by the depositor; ? = inconclusive; . = no result given; [ ] = another dose, or the depositor's remark. Unless noted, calls come from the whole dose curve; as a rule, active = well fitted curve in the direction sought with a large enough effect; inconclusive = small, poorly fitted or top-dose-only effect, or another doubt; inactive = no such curve, though single readings can be large; an effect the other way counts as inactive or inconclusive. Potency is the fitted concentration of half-maximal effect.
1: Cc1ccc(-c2cn3c(n2)sc2cc(C(=O)NCCC4=CCCCC4)ccc23)cc1
2: COc1cccc2c1OCC/C2=N\NC(=O)COc1ccccc1C
3: CCOc1ccc(-n2c(SC(C)C(=O)OC)nc3c(c2=O)SCC3)cc1 (configuration not stated)
4: Cc1cc(C)c2nc(N3CCC(C(=O)NCCCN4CCCC4=O)CC3)sc2c1
5: Cc1ccc(CNC(=O)c2ccc(CSCc3cccc(C)c3)o2)cc1
6: C=CCn1c(SCc2csc(-c3ccc(Cl)cc3)n2)nnc1-c1ccccc1OC
7: CCc1nccn1S(=O)(=O)c1ccccc1[N+](=O)[O-]
8: COc1cc(CNCc2ccc(C(=O)O)cc2)ccc1OCc1ccc(F)cc1
9: O=C(NNc1cc(Cl)ccc1Cl)C1CCC1
10: CCC(=O)N1CCc2cc(Br)cc(S(=O)(=O)NC3CCN(Cc4ccccc4)CC3)c21
assay / entry	1	2	3	4	5	6	7	8	9	10
SARS PLP yeast	.	9.0%	.	1.6%	.	5.0%	-3.7%	-2.3%	-0.6%	2.7%
RE007 growth inh	.	-0.2%	-16.2%	0.5%	.	27.9%	2.6%	21.0%	51.7%	?
MARV entry inh	.	11.5%	2.8%	.	.	?	.	-13.3%[46.1 µM]	-26.2%	?
Cruzain inh noDet	0.2%	?	.	.	-16.2%	5.9%	.	.	.	.
2A StopGo	14.2%	-0.9%	.	-7.5%	-17.5%	?	-19.5%	-1.9%	-5.5%	17.5%
NS1 inh	.	2.5%	-32.9%	-10.8%	.	1.8%	-0.6%	2.7%	-0.1%	-12.0%
Cruzain Triton	-1.4%	-2.7%	.	.	-1.2%	-8.2%	.	.	.	.
LASV entry inh	18.1%[46.1 µM]	2.4%	-5.7%	.	-21.2%[46.1 µM]	-12.8%	.	7.2%[46.1 µM]	16.6%	2.24µM*

# Single records (already shown). Screens in order: SARS PLP yeast | RE007 growth inh | MARV entry inh | Cruzain inh noDet | 2A StopGo | NS1 inh | Cruzain Triton | LASV entry inh
# Shown for `Cc1ccc(CNC(=O)c2ccc(CSCc3cccc(C)c3)o2)cc1` = . | . | . | -16.2% | -17.5% | . | -1.2% | -21.2%[46.1 µM]
# Shown for `Cc1cc(C)c2nc(N3CCC(C(=O)NCCCN4CCCC4=O)CC3)sc2c1` = 1.6% | 0.5% | . | . | -7.5% | -10.8% | . | .
# Shown for `COc1cc(CNCc2ccc(C(=O)O)cc2)ccc1OCc1ccc(F)cc1` = -2.3% | 21.0% | -13.3%[46.1 µM] | . | -1.9% | 2.7% | . | 7.2%[46.1 µM]
# Shown for `C=CCn1c(SCc2csc(-c3ccc(Cl)cc3)n2)nnc1-c1ccccc1OC` = 5.0% | 27.9% | ? | 5.9% | ? | 1.8% | -8.2% | -12.8%
# Shown for `CCc1nccn1S(=O)(=O)c1ccccc1[N+](=O)[O-]` = -3.7% | 2.6% | . | . | -19.5% | -0.6% | . | .
